Assay outcomes (PubChem BioAssay)
AID923: qHTS Assay for Allosteric/Competitive Inhibitors of Caspase-1: Spectroscopic Profiling in AFC Spectral Region | AID 923, 2007 | compound fluorescence, AFC spectral region (405/520 nm); almost no hit is shown here | 1.1% of 75,000 active | Potency, µM (highest dose often 57.5 µM), without a hit: at the highest dose fluorescence increase, actives largely listed as activators; active = well fitted activation curve with a large enough effect; inconclusive = small, poorly fitted or top-dose-only effect;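 note: potency is the fitted concentration of half-maximal effect; 0% is about no effect; scaled to a free AFC standard on each plate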
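Baseline compound fluorescence (AFC region, 405 nm ex/520 nm em) taken from the intercept of kinetic reads with 50 nM caspase-1 and 5 uM Ac-WEHD-AFC; normalized to an on-plate AFC standard curve; compounds titrated up to 57 uM.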
TSHR ag: activates the human thyroid stimulating hormone receptor; P16473; HEK293-CNG-TSHR cells (CNG channel as cAMP sensor), membrane potential dye, cAMP; Potency, µM (titrated, usually from 57.1 µM), for inactives: at the top dose activation, hits mostly activators; 0.48% of 73,000 active; AID 926; active = well fitted activation curve of enough size with the parental cells flat; inconclusive = any curve in the parental cells; inactive = parental cells flat and receptor cells flat or falling; note: potency is the fitted concentration of half-maximal effect; % of control where 0% means no effect; weak receptor curves with flat parental cells got no call and are not listed
Target sequence (P16473 whole entry, looked up): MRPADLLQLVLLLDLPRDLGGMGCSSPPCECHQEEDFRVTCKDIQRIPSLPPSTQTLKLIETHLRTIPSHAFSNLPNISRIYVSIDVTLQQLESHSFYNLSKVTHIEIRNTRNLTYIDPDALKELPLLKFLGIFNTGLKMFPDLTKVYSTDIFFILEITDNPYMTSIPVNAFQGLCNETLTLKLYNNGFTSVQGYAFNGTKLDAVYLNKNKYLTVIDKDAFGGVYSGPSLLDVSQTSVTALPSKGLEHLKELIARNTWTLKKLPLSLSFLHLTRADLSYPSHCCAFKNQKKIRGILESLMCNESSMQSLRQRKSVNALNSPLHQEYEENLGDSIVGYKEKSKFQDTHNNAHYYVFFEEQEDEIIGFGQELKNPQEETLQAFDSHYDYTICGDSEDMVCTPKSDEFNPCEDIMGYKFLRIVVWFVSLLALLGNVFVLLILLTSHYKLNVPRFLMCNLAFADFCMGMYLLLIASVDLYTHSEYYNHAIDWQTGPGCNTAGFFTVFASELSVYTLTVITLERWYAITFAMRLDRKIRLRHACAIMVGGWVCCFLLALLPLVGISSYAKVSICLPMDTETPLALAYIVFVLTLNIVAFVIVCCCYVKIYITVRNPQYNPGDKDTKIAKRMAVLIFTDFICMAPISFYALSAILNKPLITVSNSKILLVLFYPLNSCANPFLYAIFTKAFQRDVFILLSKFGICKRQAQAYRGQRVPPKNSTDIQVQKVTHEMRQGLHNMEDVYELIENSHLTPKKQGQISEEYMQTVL
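HEK 293 cells stably expressing TSHR and a modified CNG channel, with CNG-only parental cells as counterscreen, were preloaded 60 min at room temperature with membrane potential dye containing 100 uM RO 20-1724. Compound exposure was 30 min, and depolarization was read as fluorescence at 590 nm.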
A488 autofl: A488 region autofluorescence; AID 591; compound autofluorescence, A488 spectral region, dye equivalency; hits give high values; 0.1% of 59,000 active; max dye equivalency, M; active = above 10 nM dye equivalent; inconclusive = 1 to 10 nM; inactive = 1 nM or less; about half of its hits are not listed in these tables;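 note: highest value over a series up to 38 µM; compound alone in buffer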
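Compounds pin-transferred into 100 mM Tris buffer, pH 8.0, incubated 15 min at room temperature, then imaged with 480 nm excitation/540 nm emission filters. Fluorescence converted to Alexa 488 dye-equivalent concentration via an on-plate six-point A488 standard curve.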
Resorufin autofl: compound fluoresces in the resorufin spectral region; Compound fluorescence, resorufin region 547/598 nm, buffer; hits give high values; max dye-equivalent concentration, M; 0.04% of 59,000 active; AID 588; active = above 10 nM dye equivalent; inconclusive = 1 to 10 nM; inactive = 1 nM or less; a few of its hits are not listed in these tables; note: highest value over a series up to 38 µM
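Compounds in 100 mM Tris, pH 8.0, incubated 15 min at room temperature, then fluorescence read at 547 nm excitation/598 nm emission. Signal converted to dye-equivalent concentration via an on-plate six-point resorufin standard curve, per compound concentration.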
A647 autofl: compound fluoresces in the A647 spectral region; Compound fluorescence, A647 channel (570/671 nm), Tris buffer; max dye-equivalent concentration, M; 59,000 tested, under 10 active; AID 592; active means above 1 µM dye equivalent; inconclusive means 0.1 to 1 µM; inactive means 0.1 µM or less;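 note: values scaled relative to a standard on each plate; highest value over a series up to 38 µM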
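Fluorescence read (570 nm ex, 671 nm em) after 15 min RT incubation of compounds in 100 mM Tris buffer, pH 8.0; values expressed as dye-equivalent concentration against a six-point A647 standard series on each plate.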
* marks the source's active call; other numbers are inactive results; i = inactive; ? = inconclusive; / = no result given; [ ] = dose if it differs, or a comment.

SMILES | AID923 | TSHR ag | A488 autofl | Resorufin autofl | A647 autofl
Cc1ccc(C(=O)OCc2nnc(-c3ccccc3)o2)o1 | 0.6% | 4.2% | i | i | 1.74e-08
O=C(NC1CCN(Cc2nnnn2CCc2ccccc2)CC1)c1ccccc1F | -0.2% | ? | i | i | 1.29e-08
CC12CN3CC(C)(CN(C1)C3c1ccc(Br)cc1)C2 (centres undefined) | 5.3% | ? | i | i | 1e-09
c1ccc(COn2c(-c3ccccc3)nc3c2CCc2nonc2-3)cc1 | -2.3% | ? | i | i | 3.44e-08
CN(Cc1nc2ccccc2n1C)C(=O)c1cccs1 | -1.3% | 6.6% | i | i | 4.43e-08
CC(=O)Oc1ccc(N2C(=O)C3C4C=CC(O4)C3C2=O)cc1 (centres undefined) | -0.6% | 1.2% | / | / | /
c1ccc2c(c1)CCCC2NC1=NCCC1 (centres undefined) | 1.9% | 0.8% | i | i | 2.5e-09
Cc1noc(COc2ccccc2OCC(O)CNC(C)(C)C)n1 (centres undefined) | / | / | i | i | 1e-09
CCc1nc(Nc2ccc(N3CCN(C(C)=O)CC3)cc2)c2oc3ccccc3c2n1 | 5.4% | -21.6% | i | i | 2.3e-09
CC(=O)c1cccc(NC(=O)N2CCCC2C(=O)Nc2cc(C)ccc2C)c1 (centres undefined) | -0.3% | -11.4% | i | i | 1.1e-09
CCOc1ccc2[nH]c(=O)c(CN(Cc3cccs3)Cc3nnnn3C(C)(C)C)cc2c1 | 0.8% | ? | i | i | 1e-09
Cc1cc(O)c(/C=N/c2ccccn2)c(=O)o1 | 12.3% | -0.6% | i | i | 5.5e-09

The final 2 entries of the section above open the next one:
SMILES | AID923 | TSHR ag | A488 autofl | Resorufin autofl | A647 autofl
CCOc1ccc2[nH]c(=O)c(CN(Cc3cccs3)Cc3nnnn3C(C)(C)C)cc2c1 | 0.8% | ? | i | i | 1e-09
Cc1cc(O)c(/C=N/c2ccccn2)c(=O)o1 | 12.3% | -0.6% | i | i | 5.5e-09
CCN(CC)S(=O)(=O)c1csc(C(=O)NCc2ccccc2)c1 | 0.3% | -2.3% | i | i | 2.97e-08
COc1cc(NC(=O)CN2C(=O)NC(C)(CCC(C)C)C2=O)cc(OC)c1 (centres undefined) | -0.9% | 6.1% | i | i | 2.06e-08
CNc1ccnc(-c2ccccc2C)n1 | 1.3% | 0.5% | i | i | 3.72e-08
COc1cccc(-c2cc(C(=O)Nc3cc(C)n(Cc4ccc(Cl)cc4)n3)no2)c1 | 0.3% | 14.8%[11.4 µM] | i | i | 7.2e-09
O=C1CC(N2CCN(Cc3ccccc3)CC2)C(=O)N1c1ccccc1 (centres undefined) | 2.2% | 3.4% | / | / | /
Cc1ccc(-c2csc3ncn(-n4c(C)ccc4C)c(=O)c23)o1 | -0.9% | 17.5% | i | i | 1e-09
CSc1nnc(-c2ccccc2)n1N | 5.6% | 0.5% | / | / | /
CCCCn1c(SCC(=O)Nc2cccc(C)n2)nnc1-c1ccco1 | 0.7% | ? | i | i | 4.32e-08
Cc1sc2c(=O)n3c(nc2c1C(=O)NCCCN1CCOCC1)CCCCC3 | 0.1% | -2.4% | i | i | 3.87e-08
CCn1c(SC)nnc1-c1nnc(SC)n1CC | -2.6% | 0.5% | i | i | 6.6e-09
C[C@]1(c2ccccc2)O[C@@H]2C[C@@H]3[C@@H]4CCC5=CC(=O)C=C[C@@]5(C)[C@]4(F)[C@H](O)C[C@]3(C)[C@@]2(C(=O)CO)O1 | -3.3%[11.5 µM] | -5.3%[11.4 µM] | i | i | 1e-09
Cc1nc2ncnn2c(C)c1CCC(=O)N1CCN(C(=O)c2ccco2)CC1 | 0.7% | 4.1% | i | i | 1e-09
O=C(CCCOc1ccccc1)Nc1ccc(S(=O)(=O)N2CCOCC2)cc1 | 0.1% | -12.2% | i | i | 1.2e-09
N[C@H](C(=O)O)[C@H](OCc1ccccc1)C(=O)O | -2.3% | -4.0% | / | / | /
O=S(=O)(NCCc1csc(-c2cccnc2)n1)c1cccs1 | -3.4% | ? | / | / | /
COC(=O)[C@@]1(Cc2ccc(OC)cc2)[C@H]2c3cc(C(=O)N4CCCC4)n(CCc4c[nH]c5ccccc45)c3C[C@H]2CN1C(=O)c1ccccc1 | 1.0% | ? | / | / | /
CC1(C)CC(=O)C=C(Nc2ccc3c(c2)OCCO3)C1 | 0.7% | 10.9% | / | / | /
CN1CCN(CCCNC(=O)c2cn(C)c3ccc(S(=O)(=O)N(C)C)cc3c2=O)CC1 | -1.8% | ? | / | / | /
Cc1ccccc1-c1nccc(Nc2ccc(F)cc2)n1 | -1.1% | -4.8% | i | i | 1e-09
O=C(CCn1cccc1)NCc1ccccc1 | 1.7% | ? | / | / | /
CCCN(CCC)CCCNC(=O)c1cn(CCOC)c(=O)c2c1c1ccccc1n2C | -0.5% | 19.9% | i | i | 1e-09
COCCN(C(C)=O)c1nnc(-c2cnccn2)s1 | 1.6% | -1.6% | i | i | 1e-09
Cc1cc(C)cc(N(CC(=O)Nc2cccc(C)n2)S(=O)(=O)c2c(C)noc2C)c1 | -3.0% | ? | / | / | /
CCS(=O)(=O)N1CCCC(C(=O)NCc2ccc(C)cc2)C1 (centres undefined) | 2.9% | -0.3% | i | i | 9.6e-09

One compound at a time, from the list above. Screens in order: AID923	TSHR ag	A488 autofl	Resorufin autofl	A647 autofl
N[C@H](C(=O)O)[C@H](OCc1ccccc1)C(=O)O in the list: -2.3%	-4.0%	/	/	/
CC1(C)CC(=O)C=C(Nc2ccc3c(c2)OCCO3)C1 in the list: 0.7%	10.9%	/	/	/
COC(=O)[C@@]1(Cc2ccc(OC)cc2)[C@H]2c3cc(C(=O)N4CCCC4)n(CCc4c[nH]c5ccccc45)c3C[C@H]2CN1C(=O)c1ccccc1 in the list: 1.0%	?	/	/	/
Cc1cc(C)cc(N(CC(=O)Nc2cccc(C)n2)S(=O)(=O)c2c(C)noc2C)c1 in the list: -3.0%	?	/	/	/
CCCN(CCC)CCCNC(=O)c1cn(CCOC)c(=O)c2c1c1ccccc1n2C in the list: -0.5%	19.9%	i	i	1e-09

The results go on:
SMILES | AID923 | TSHR ag | A488 autofl | Resorufin autofl | A647 autofl
Cc1nnc(NC(=O)C2COc3ccccc3O2)s1 (centres undefined) | -0.1% | -5.2% | i | i | 1e-09
O=C1CC(N2CCSCC2)C(=O)N1CCc1ccccc1 (centres undefined) | -4.3% | -0.5% | i | i | 1.89e-08
C=C(C)CSc1nc(N)c2c(C)c(C)sc2n1 | 0.2% | 2.9% | i | i | 2.67e-08
CCCCCNC(=O)CCCCn1c(=O)[nH]c2cc(OCC)c(OCC)cc2c1=O | 0.3% | 2.3% | i | i | 5.9e-09
O=C(CCC1COc2ccccc2O1)Nc1cccnc1 (centres undefined) | 0.9% | 19.6% | i | i | 1.96e-08
COC(=O)Nc1ccc(S(=O)(=O)N(C)C)cc1 | -2.3% | -3.4% | i | i | 2.89e-08
CCCOc1ccc(C2C(C(=O)c3ccco3)=C(O)C(=O)N2CCCn2ccnc2)cc1 (centres undefined) | -1.8% | 1.2% | i | i | 1e-09
COc1ccc(Cl)cc1NC(=O)CC(C)=O | -2.0% | 2.4% | / | / | /
CCOC(=O)C1=C(C)N=C2SC(C)C(=O)N2C1c1cccc(F)c1 (centres undefined) | / | / | i | i | 3.8e-08
CC(C)CN1CC[C@@]2(CCCN(S(=O)(=O)c3ccccc3)C2)C1 | 0.1% | 25.2% | i | i | 4e-09
COC(=O)N1[C@H](Cc2ccccc2)C=C[C@]1(C)C(=O)NCc1ccccn1 | -1.2% | 11.5% | / | / | /

An excerpt; rates above refer to the full screens.
